# Ecoli rRNA inh = reduced GFP signal of wild-type E. coli, primary screen, bacterial rRNA inhibitor project, GFP/RFP fluorescence, OD600, single point; E. coli WT GFP vs humanized-ribosome RFP mutants, 24 h; stronger effect = lower value; DMSO median 0, no signal -100; GFP signal change (wild-type ribosome), % (concentration not given with the values); actives 1.6% (n = 350,000); AID 720706, 2013;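 active means significant combined selectivity score with lowered wild-type GFP, culture density cut under 30%, mutant RFP and density less affected; inactive means any of these conditions unmet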; further: one replicate is shown; some compounds called inactive have numbers as strong as hits
# ALR inh = inhibitors of human ALR sulfhydryl oxidase, primary screen, biochemical, H2O2 detection, HRP-luminol luminescence, single point. FAD-linked sulfhydryl oxidase ALR (Homo sapiens), P55789. purified ALR, DTT oxidation. inhibition, % (no concentration beside the values). actives 3.8% (n = 290,000);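 active means mean and each replicate at 75% or more; inconclusive means only one of the two met; inactive means neither met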;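 further: stock transfer was 7.5 nL into about 7.5 µL; 0% = neutral wells and 100% = wells with inactivated enzyme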
# Vif TR-FRET = inhibitors of Vif binding to APOBEC3G peptide, primary screen, biochemical, TR-FRET, GST-Vif 1-94, biotin-A3G peptide, dose response retest (AID 1117319) | Virion infectivity factor (Human immunodeficiency virus type 1 group M subtype B (isolate … | TR-FRET GST-Vif / biotin-A3G peptide binding; higher % means a stronger effect; test concentration not given here; strong numbers were not always called active | one-dose inhibition, %; IC50 in µM for titrated hits | actives 0.57% (n = 260,000);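 active means above the screen mean plus three standard deviations and confirmed in dose response; inconclusive means results disagree or hit not tested in dose response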;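 further: Vif residues 1-94 fused to GST binding biotinylated APOBEC3G peptide 110-148; 0% = full assay without inhibitor and 100% = GST in place of GST-Vif; retest series ran down from 100 µM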
# E coli growth = E. coli growth inhibition, primary screen, OD600; Escherichia coli growth, 23 h; stronger effect = lower value; AID 1053175, 2014; actives 0.21% (n = 330,000); OD600 absorbance (test concentration not listed);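 active means OD600 absorbance below the run mean of sample wells minus 3.6 SD, in any replicate, cut at about 0.56 in these data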;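 further: stock transfer was 300 nL into about 60 µL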
# FGF22 binding = binders of human FGF22 protein, primary screen, FGF22 synaptogenesis inhibitor project, biophysical, thermal shift, single point; Fibroblast growth factor 22 (Homo sapiens), Q9HCT0; recombinant FGF22 thermal shift, SYPRO orange fluorescence; percent of sucrose octasulfate shift, DMSO zero; calls only at 9.99 µM; actives 1.5% (n = 340,000);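 active means melting point raised past a set limit in the mean and every replicate; inconclusive means no clear call; three in four hits are not shown here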
# HNF4A DNA FP = change in binding of human HNF4A to DNA, primary screen, biochemical, fluorescence polarization, FITC-DNA. activity change, % at 10 µM. actives 0.3% (n = 360,000). 1 h; in the data active means activity change above about 30%, passing the limit was not always enough;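 further: controls were the assay level and a saturating level of protein; the project sought stronger binding though the title names inhibitors; some compounds called inactive have numbers as strong as hits; positive values seem to mean higher polarization but the record does not say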
# Target sequence (P41235 whole entry, looked up): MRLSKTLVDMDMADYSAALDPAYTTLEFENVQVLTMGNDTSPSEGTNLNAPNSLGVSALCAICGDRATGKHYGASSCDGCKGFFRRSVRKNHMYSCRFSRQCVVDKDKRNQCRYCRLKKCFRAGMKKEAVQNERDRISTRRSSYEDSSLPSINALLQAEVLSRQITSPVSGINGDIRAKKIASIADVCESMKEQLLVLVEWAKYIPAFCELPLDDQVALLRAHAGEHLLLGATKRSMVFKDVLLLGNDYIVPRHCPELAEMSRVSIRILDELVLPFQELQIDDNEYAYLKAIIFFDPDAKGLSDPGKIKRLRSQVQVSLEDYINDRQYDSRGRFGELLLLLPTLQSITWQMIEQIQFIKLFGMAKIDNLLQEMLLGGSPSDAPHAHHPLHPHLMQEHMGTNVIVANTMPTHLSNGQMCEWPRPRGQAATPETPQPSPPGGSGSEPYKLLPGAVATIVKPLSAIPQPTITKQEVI
# AF4-AF9 inh = inhibitors of AF4 peptide binding to AF9, primary screen, biochemical, AlphaScreen, biotin-AF4 peptide, FLAG-AF9, single point; Protein AF-9 (Homo sapiens), P42568; inhibition, % at 10 µM; actives 0.47% (n = 350,000); AID 651704, 2012;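 active means every replicate reaching a set inhibition limit, whatever the replicate mean, cut at about 25% in these data; inconclusive means mean inhibition reaches that limit but some replicates miss it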;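 further: 0% = plate neutral control median and 100% = total signal loss; the record names both 10 and 1 µM as test concentration; the first replicate is given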
# Target sequence (P42568 whole entry, looked up): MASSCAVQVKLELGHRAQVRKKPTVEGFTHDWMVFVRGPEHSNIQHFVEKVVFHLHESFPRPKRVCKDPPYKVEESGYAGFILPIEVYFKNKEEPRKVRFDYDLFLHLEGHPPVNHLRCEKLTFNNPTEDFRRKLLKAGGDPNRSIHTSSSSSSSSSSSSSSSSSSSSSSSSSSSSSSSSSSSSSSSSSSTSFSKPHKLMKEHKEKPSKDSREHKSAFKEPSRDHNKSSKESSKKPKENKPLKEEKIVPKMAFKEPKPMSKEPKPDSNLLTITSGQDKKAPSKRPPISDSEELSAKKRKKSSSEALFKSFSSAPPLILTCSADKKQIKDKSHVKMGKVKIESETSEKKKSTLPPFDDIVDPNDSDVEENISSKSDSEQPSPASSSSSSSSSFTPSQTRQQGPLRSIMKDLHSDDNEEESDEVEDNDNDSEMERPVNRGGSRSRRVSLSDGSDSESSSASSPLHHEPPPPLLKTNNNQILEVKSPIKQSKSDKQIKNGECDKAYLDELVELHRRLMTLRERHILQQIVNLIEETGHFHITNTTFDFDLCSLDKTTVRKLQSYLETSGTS
# Ecoli rRNA inh OD600 = also measured in Ecoli rRNA inh; calls as there; OD600 change, %; measured here: OD600 growth;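 optical density of the mix in the first replicate; 0 = DMSO median and -100 = no signal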
# Ecoli rRNA inh RFP = also measured in Ecoli rRNA inh; calls as there; RFP signal change, %; measured here: RFP humanized mutant strains;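 first replicate; 0 = DMSO median and -100 = no signal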
# * = called active by the depositor; i = inactive; u = inconclusive; x = no result given; & = joins results of further samples. The list is partial, so the mix of outcomes need not match the whole.
SMILES,Ecoli rRNA inh,Ecoli rRNA inh OD600,Ecoli rRNA inh RFP,ALR inh,Vif TR-FRET,E coli growth,FGF22 binding,HNF4A DNA FP,AF4-AF9 inh
C[C@H](O)C#Cc1cnc2c(c1)C(=O)N([C@H](C)CO)C[C@H](C)[C@@H](CN(C)Cc1cccc(F)c1)O2,2,9,-0.6,x,x,x,i,x,-1.6
COC(=O)CN(c1ccc(C)cc1)S(=O)(=O)c1c(C)[nH]c(=O)[nH]c1=O,x,x,x,-2,0%,0.71,x,-3.3,x
COc1ccc(NC(=O)C2(C)CCN2C(=O)Cc2ccc(Cl)cc2Cl)cc1OC (centres undefined),-7,-16,-1.7,x,x,x,i,-0.4,-3.8
Cc1occc1C(=O)NC(C)c1ccc2c(c1)OCO2 (centres undefined),4,-2,-6.5,6,-1%,0.68,i,0.4,3.7
O=C(C[C@@H]1CC[C@@H]2[C@H](COC[C@@H](O)CN2C(=O)Nc2ccccc2)O1)NC1Cc2ccccc2C1,-6,-18,-5.0,x,x,x,i,x,-0.5
O=C(/C=C/c1c(F)cccc1Cl)Nc1nc2ccccc2[nH]1,x,x,x,-7,2%,0.68,i,-1.4,-3.8
Cn1ccnc1SCc1ccc([N+](=O)[O-])cc1,x,x,x,99*,30%,0.71,x,6.4,x
Cc1nc2ccc(Cl)cc2nc(C)/c1=N\O,x,x,x,-13,15%,x,x,15,x
COc1cccc(-n2c(SCC(=O)N3CCOCC3)nnc2-c2c[nH]c3ccccc23)c1,-5,-6,-1.0,9,u,0.71,i,0.5,-2.5
O=C(C[C@@H]1C[C@@H]2c3cc(NC(=O)NC4CCCC4)ccc3O[C@@H]2[C@H](CO)O1)NCC(F)(F)F,2,-5,0.6,x,x,x,i,x,-2.8
O=C(Oc1ccc(Br)cc1C(=S)N1CCOCC1)c1ccc([N+](=O)[O-])cc1[N+](=O)[O-],-5,2,-1.2,x,x,0.64,i,-1.0,11
CNc1nc(-c2ccc3c(c2)CCN3C(=O)c2ccccc2F)cs1,-2,1,7.8,x,4%,0.66,i,0.1,18
CN(C)/N=C/c1ccc(OC(=O)c2cccc([N+](=O)[O-])c2)cc1,3,9,-0.8,98*,2%,x,i,-1.6,0.4
CN(CC(=O)Nc1ccccc1Br)Cc1nc2ccccc2c(=O)[nH]1,x,x,x,-10,0%,0.75,x,-0.6,x
CN(Cc1ccc(C(F)(F)F)cc1)C(=O)c1ccc2ccccc2n1,-5,1,1.8,-1,-5%,0.67,i,-1.3,-5.2
CC(NC(=O)c1cc2sccc2n1C)c1ccc2c(c1)OCCO2 (centres undefined),x,x,x,-8,21%,0.63,x,0.0,x
COc1ccccc1NS(=O)(=O)c1cccc(C(=O)N/N=C/c2ccc(C)o2)c1,2,-4,-2.8,4,-4%,x,i,2.2,1.1
CCn1nc(C)cc1C(=O)NC1CCCc2c1cnn2-c1ccc(C)c(C)c1 (centres undefined),10,-21,1.1,5,x,0.67,i,-0.2,-2.1
Cc1ccccc1NC(=O)CSc1nnc(C2CC2)n1CC1CCCO1 (centres undefined),2,3,-1.0,x,6%,0.66,i,-1.1,1.6
C[C@H](CO)N1C[C@H](C)[C@@H](CN(C)S(=O)(=O)c2ccc(F)cc2)OCCCC[C@H](C)Oc2ccc(NS(C)(=O)=O)cc2C1=O,2,8,0.2,x,x,x,i,x,-1.1
CS(=O)(=O)N1C[C@@H](O)COC[C@@H]2O[C@H](CC(=O)NCc3ccc(-c4ccccc4)cc3)CC[C@H]21,-3,-1,1.6,x,x,x,i,x,16
Cc1csc(NC(=O)CN2C(=O)COc3ccc(Cl)cc32)n1,10,2,-0.7,-16,1%,0.71,i,1.8,3.1
CCOc1ccc(CN(C)Cc2cc(=O)oc3cc(C)c(Cl)cc23)cc1,9,0,0.3,-1,-7%,0.69,i,3.9,1.3
COc1cccc(CN2C(=NC(=O)C3CC3)SC3CS(=O)(=O)CC32)c1 (centres undefined),7,7,-0.4,-7,3%,0.68,i,1.2,-1.1
CC(C)C1CC(CCNCc2ccc(N(C)C)cc2)(c2ccccc2)CCO1 (centres undefined),-37,-72,-23,5,14%,x,i,-2.4,39*
SMILES,Ecoli rRNA inh,Ecoli rRNA inh OD600,Ecoli rRNA inh RFP,ALR inh,Vif TR-FRET,E coli growth,FGF22 binding,HNF4A DNA FP,AF4-AF9 inh
Cc1ccc(S(=O)(=O)N2CCN(C(=O)c3ccc(N4CCCC4)c([N+](=O)[O-])c3)CC2)cc1,-13,-5,3.7,-6,-1%,0.72,i,-7.6,10
CCC(Sc1nc2ccncc2[nH]1)C(=O)Nc1ccc(C)c(Cl)c1 (centres undefined),-42,-55,-8.8,x,x,0.75,i,-0.3,1.9
Cc1cccc(OCC(=O)Nc2cc(C)ccc2O)c1,x,x,x,x,0%,0.71,x,-0.6,x
COc1ccc(S(=O)(=O)N2CCOCC2)cc1NC(=O)COC(=O)C1CCC1,2,9,-3.8,-1,x,0.67,i,-0.2,2.4
COC(=O)C[C@@H]1C=C[C@H](NS(=O)(=O)c2ccc(OC)cc2)[C@H](CO)O1,1,5,0.8,x,x,x,i,x,-2.0
Cc1ccnc(NC2(C(F)(F)F)N=C(c3ccccc3)NC2=O)c1 (centres undefined),x,x,x,0,-1%,0.75,x,-5.5,x
NC(=O)c1nsc(C(=O)N(c2ccccc2)C(C(=O)NCc2ccc(F)cc2)c2ccc(O)cc2)c1N (centres undefined),3,0,9.9,-3,x,0.71,i,-1.9,-5.6
Cc1ccc(NC(=O)c2nc[nH]c2C(=O)NC2CCN(C(=O)OC(C)(C)C)CC2)cc1,21,7,-9.4,-3,x,0.7,i,-3.5,2.3
COc1cc(CNCC2CCCO2)ccc1OCC(N)=O (centres undefined),22,27,-0.8,30,-14%,0.71,i,0.8,-1.2
O=C(NC1CC1)c1scc2c1OCCO2,x,x,x,-4,u,0.74,x,-0.8,x
CCCOc1ccc(CC2CCC(=O)NC2=O)cc1 (centres undefined),-6,0,-2.2,-15,9%,0.71,i,-2.5,-4.4
COC(=O)c1ccc(-c2nc3ccccc3[nH]2)cc1,x,x,x,-4,-7%,0.69,x,0.2,x
COc1ccc(NC(=O)N(C)C[C@H]2Oc3ccc(NS(=O)(=O)c4cccs4)cc3C(=O)N([C@@H](C)CO)C[C@@H]2C)cc1,1&11,3&15,-2.3&-5.8,-2,x,x,i,0.1,-0.7&-0.2
C[C@@H]1CN([C@H](C)CO)C(=O)c2cc(NC(=O)CCC(F)(F)F)ccc2O[C@@H](C)CCCCO[C@@H]1CN(C)S(=O)(=O)c1cccs1,-2,-5,0.7,x,x,x,i,x,-0.4
Cc1cc(C)nc(N/C(=N\S(=O)(=O)Cc2ccccc2)Nc2ccc(F)c(Cl)c2)n1,-7,-7,-4.2,-23,28%,0.71,i,-1.2,-0.1
CC(C)(CNC(=O)c1ccc(-c2cccc(C(F)(F)F)c2)o1)N1CCOCC1,-7,-4,-2.1,1,3%,0.69,i,1.5,3.7
Cc1cc(C)c2c(=O)cc(C(=O)NCc3ccccc3)oc2c1,19,8,2.6,-2,-2%,0.73,i,5.5,0.1
COc1ccc2c3c([nH]c2c1)[C@H](CO)N(CC1CCOCC1)CC31CN(C(=O)C2CC2)C1,3,17,-4.9,x,x,x,i,x,0.4
Cc1ccc(COC(=O)c2ccc3c(c2)C(=O)N(CCCN2CCOCC2)C3=O)cc1,16,13,0.5,1,5%,0.69,i,0.2,1.2
CCOC(=O)C1C(c2ccccc2)C(C(=O)OCC)C1c1ccccc1 (centres undefined),6,-9,-2.8,x,15%,0.7,i,-4.9,2.5
CCN1[C@@H]2c3ccc(C4=CCCC4)c(=O)n3C[C@@H]2[C@@H](CO)[C@@H]1C(=O)NC1Cc2ccccc2C1,-6,-8,4.1,x,x,x,i,x,2.3
O=C(NCCc1ccc(C(F)(F)F)cc1)C1COc2ccccc2O1 (centres undefined),-2,1,0.1,-4,-10%,0.65,i,-3.2,-0.1
Cc1cc(C(=O)OCC(=O)N2CCC(c3ccccc3)=N2)ccc1[N+](=O)[O-],7,9,0.6,0,-4%,0.7,i,-3.5,1.8
COCCNC(=O)C1CC(c2ccc(F)cc2)=NO1 (centres undefined),x,x,x,-12,0%,0.66,x,-2.5,x
CO[C@@H](CN(C)C(=O)Nc1ccc(Cl)cc1)[C@@H](C)CN(Cc1ccccc1Cl)[C@@H](C)CO,-6,-23,-3.4,x,x,x,i,x,1.0
SMILES,Ecoli rRNA inh,Ecoli rRNA inh OD600,Ecoli rRNA inh RFP,ALR inh,Vif TR-FRET,E coli growth,FGF22 binding,HNF4A DNA FP,AF4-AF9 inh
CC(C)Cc1nnc(NC(=O)c2ccc(-n3cncn3)c([N+](=O)[O-])c2)s1,-6,-1,-2.4,x,4%,x,i,3.3,-3.4
O=S(=O)(Cc1ccccc1)N1CCCCN2[C@H](CO)[C@H](c3ccc(-c4cncnc4)cc3)[C@@H]2C1,4,5,2.8,x,x,x,i,x,-8.6
COCCNCCCOc1ccc(Cl)cc1Br,2,-3,4.5,-10,8%,0.67,i,4.0,-2.6
Cc1cccc(-n2nc([N+](=O)[O-])c(=NCc3cccnc3)n2O)c1,x,x,x,-30,-3%,0.63,x,-0.3,x
COc1ccc(/C=N/N=C2\SC(CC(=O)O)C(=O)N2c2ccccc2)cc1 (centres undefined),x,x,x,-8,5%,x,i,2.2,0.7
CCCc1cc(CNC(=O)C2CCC(=O)N(Cc3ccccc3F)C2)on1 (centres undefined),7,14,-2.0,0,x,x,i,0.0,-7.6
CCCOc1ccc(-c2c(C(=O)N/N=C/c3ccccc3OCC)nnn2-c2nonc2N)cc1,6,14,-2.7,x,x,x,i,2.0,-3.2
c1ccc(Oc2cccc(OCCCCSc3ncccn3)c2)cc1,x,x,x,-4,-7%,0.71,x,-0.3,x
CC(c1ccccc1)N1CC(C(=O)Nc2nccs2)CC1=O (centres undefined),0,11,1.1,0,x,0.68,i,4.2,-11
CC(C)[C@H](NC(=O)[C@@H]1CSC2c3ccccc3C(=O)N21)C(=O)NC1CCCCC1 (some centres undefined),16,17,-0.8,0,-2%,0.71,i,2.2,-2.4
OC[C@@H]1[C@@H](c2ccccc2)C2(CN(Cc3nccs3)C2)N1Cc1ccncc1,4,9,-0.6,x,x,x,i,x,6.8
CCOc1ccccc1/C=C(/NC(=O)c1ccccc1)C(=O)NCC(=O)O,x,x,x,0,x,0.69,x,1.4,x

# Some of the entries so far, tab-delimited.
compound	Ecoli rRNA inh	Ecoli rRNA inh OD600	Ecoli rRNA inh RFP	ALR inh	Vif TR-FRET	E coli growth	FGF22 binding	HNF4A DNA FP	AF4-AF9 inh
CCCc1cc(CNC(=O)C2CCC(=O)N(Cc3ccccc3F)C2)on1 (centres undefined)	7	14	-2.0	0	x	x	i	0.0	-7.6
CC(C)[C@H](NC(=O)[C@@H]1CSC2c3ccccc3C(=O)N21)C(=O)NC1CCCCC1 (some centres undefined)	16	17	-0.8	0	-2%	0.71	i	2.2	-2.4
CCOc1ccccc1/C=C(/NC(=O)c1ccccc1)C(=O)NCC(=O)O	x	x	x	0	x	0.69	x	1.4	x
c1ccc(Oc2cccc(OCCCCSc3ncccn3)c2)cc1	x	x	x	-4	-7%	0.71	x	-0.3	x

# High-throughput results deposited in PubChem by several laboratories.
